OX1R antag: antagonists of human orexin 1 receptor (OX1R); Orexin/Hypocretin receptor type 1 (Homo sapiens), O43613; OX1R-expressing cells, FRET antagonist read-out; inhibition, % at 6.6 µM; 1.8% of 330,000 active; in the data active means inhibition mostly above about 38%, no sharp cut-off; inactive means mostly below about 40%;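 further: 0% = agonist challenge alone and 100% = reference antagonist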
Target sequence (O43613 whole entry, looked up): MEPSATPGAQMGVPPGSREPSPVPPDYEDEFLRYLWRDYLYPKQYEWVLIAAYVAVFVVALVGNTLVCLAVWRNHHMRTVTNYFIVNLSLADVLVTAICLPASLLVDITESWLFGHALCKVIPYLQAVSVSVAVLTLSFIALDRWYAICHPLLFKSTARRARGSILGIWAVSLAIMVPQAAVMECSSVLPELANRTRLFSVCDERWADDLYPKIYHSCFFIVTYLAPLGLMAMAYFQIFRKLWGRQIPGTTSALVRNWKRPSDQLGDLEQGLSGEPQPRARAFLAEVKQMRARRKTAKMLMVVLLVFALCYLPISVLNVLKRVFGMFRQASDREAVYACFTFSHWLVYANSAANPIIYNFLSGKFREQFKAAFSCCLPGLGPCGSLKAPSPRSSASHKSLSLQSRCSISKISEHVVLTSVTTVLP
STK33 kinase inh: inhibitors of purified STK33 kinase, primary screen, biochemical, ADP-Glo luminescence, homogeneous, cell-free; inhibition, % at 10 µM; MBP phosphorylation; Serine/threonine-protein kinase 33 (Homo sapiens), Q9BYT3; 0.073% of 320,000 active;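 active means inhibition at or above 25%, using the most active replicate where run in duplicate; inactive means inhibition below 25%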
Target sequence (Q9BYT3 whole entry, looked up): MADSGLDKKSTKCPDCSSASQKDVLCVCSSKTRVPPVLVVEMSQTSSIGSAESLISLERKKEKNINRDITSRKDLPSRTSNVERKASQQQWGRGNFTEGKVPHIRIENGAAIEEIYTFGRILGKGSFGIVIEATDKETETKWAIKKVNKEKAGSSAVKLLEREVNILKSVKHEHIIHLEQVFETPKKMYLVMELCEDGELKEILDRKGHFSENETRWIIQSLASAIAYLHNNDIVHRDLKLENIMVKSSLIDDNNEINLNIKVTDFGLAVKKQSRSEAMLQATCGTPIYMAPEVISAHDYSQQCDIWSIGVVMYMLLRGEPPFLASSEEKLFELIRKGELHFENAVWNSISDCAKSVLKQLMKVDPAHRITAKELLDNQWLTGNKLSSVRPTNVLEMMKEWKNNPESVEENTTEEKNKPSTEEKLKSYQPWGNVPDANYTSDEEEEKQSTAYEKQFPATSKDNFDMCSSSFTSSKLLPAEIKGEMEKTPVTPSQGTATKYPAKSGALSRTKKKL
* marks the source's active call; other numbers are inactive results; & = joins results of further samples. These rows are one share of the data, and most or all hits are left out here.

> O=C(O)COc1ccccc1/C=N/NC(=O)c1cc(-c2ccccc2)nc2ccccc12
  OX1R antag = 9 | STK33 kinase inh = 0.2
> Cc1cccc(OCC(=O)NCC(=O)N/N=C/c2ccc(N(C)C)cc2)c1
  OX1R antag = 12 | STK33 kinase inh = -0.2
> CCN(CC)S(=O)(=O)c1cc(NC(=O)CNc2cccc(S(=O)(=O)N3CCCC3)c2)ccc1C
  OX1R antag = 34 | STK33 kinase inh = -0.2
> O=C(COc1cc(Cl)ccc1Cl)Nc1nnc(C2CC2)s1
  OX1R antag = 10 | STK33 kinase inh = -0.7
> COC(=O)c1ccccc1NC(=O)n1cc(C)cn1
  OX1R antag = 1 | STK33 kinase inh = 0.7
> CC(=O)Nc1ccc(S(=O)(=O)NC2(C(F)(F)F)NC(=O)N(Cc3ccccc3)C2=O)cc1 (stereo not given)
  OX1R antag = 27 | STK33 kinase inh = -0.8
> C/C(=N\NC(=O)CN1CCN(S(=O)(=O)c2ccc(C)cc2)CC1)c1cccnc1
  OX1R antag = -1 | STK33 kinase inh = -0.8
> Cc1ccccc1N1CCN(c2ncnc3scc(-c4cccs4)c23)CC1
  OX1R antag = 18 | STK33 kinase inh = -0.8
> O=S(=O)(c1ccc(F)cc1)N1CCN(c2ccccc2)CC1
  OX1R antag = 10 | STK33 kinase inh = -0.5
> COc1cccc(C2=NOC(C(=O)Nc3cccnc3)C2)c1 (stereo not given)
  OX1R antag = 4 | STK33 kinase inh = -1.2

> N#C/C(=N\O)c1nc(-c2ccccc2)cs1
  OX1R antag = 30&35 | STK33 kinase inh = -0.9&0.6
> CCCCC(=O)Nc1cccc(NC(=O)c2ccc(Br)o2)c1
  OX1R antag = 8 | STK33 kinase inh = 0.8
> O=c1c2ccccc2nnn1CSc1nnnn1-c1ccccc1
  OX1R antag = 22 | STK33 kinase inh = -0.9
> CN1C(=O)/C(=C2\SC(N3CCCCCC3)=NC2=O)c2ccccc21
  OX1R antag = 39 | STK33 kinase inh = -0.3
> Cc1ccc(NNC(=O)c2ccno2)cc1Cl
  OX1R antag = 11 | STK33 kinase inh = -0.8
> CCOC(=O)c1c(C)oc2c1cc(O)c1ccccc12
  OX1R antag = 22 | STK33 kinase inh = -0.3
> CC(NS(C)(=O)=O)C(c1cccs1)N1CCN(C)CC1 (stereo not given)
  OX1R antag = 11 | STK33 kinase inh = -0.6
> COC(=O)c1c(NC(=O)CN2CCN(S(=O)(=O)c3ccccc3[N+](=O)[O-])CC2)sc2c1CCC(C)C2 (stereo not given)
  OX1R antag = 17 | STK33 kinase inh = -1.8
> COc1ccc(-c2ccc3nnc(SCC(N)=O)n3n2)cc1
  OX1R antag = 54 | STK33 kinase inh = 0.3
> Cc1ccc(S(=O)(=O)N2CCN(C(=O)CSc3nc4ccccc4c(=O)[nH]3)CC2)cc1
  OX1R antag = 20 | STK33 kinase inh = -2.5

Entries shown so far that have an aryl methoxy group, in the order listed:
> COc1cccc(C2=NOC(C(=O)Nc3cccnc3)C2)c1 (stereo not given)
  OX1R antag = 4 | STK33 kinase inh = -1.2
> COc1ccc(-c2ccc3nnc(SCC(N)=O)n3n2)cc1
  OX1R antag = 54 | STK33 kinase inh = 0.3

Going on with the list.
> Cc1ccc(C(=O)NC(=S)Nc2nc(-c3cccc([N+](=O)[O-])c3)cs2)c(Cl)c1
  OX1R antag = 5 | STK33 kinase inh = -1.8
> CCOC(=O)N1CCN(C(=O)CCn2nc(-c3ccccc3)ccc2=O)CC1
  OX1R antag = 17 | STK33 kinase inh = -1.8
> COc1ccc(/C=C2/SC(=S)N(n3c(C)ccc3C)C2=O)cc1
  OX1R antag = 22 | STK33 kinase inh = -0.3
> O=c1c(-c2ccc(O)cc2)coc2cc(OC3OC(CO)C(O)C(O)C3O)ccc12 (stereo not given)
  OX1R antag = 14 | STK33 kinase inh = -1.4
> CCC(=O)N1CCN(c2ccccc2NC(=O)c2ccc([N+](=O)[O-])o2)CC1
  OX1R antag = 28 | STK33 kinase inh = 2.9
> O=C(Nc1ccc(N2CCCC2)c(Cl)c1)c1ccco1
  OX1R antag = 4 | STK33 kinase inh = -0.1
> Cc1cc(C)c2c(-n3cccc3)nn(C)c2n1
  OX1R antag = 5 | STK33 kinase inh = -2.7
> C=CCOc1ccc(/C=N/NC(=O)c2c(C)nc3ccc(Cl)cn23)cc1
  OX1R antag = 20 | STK33 kinase inh = -1.4
> CN(C)c1ccc(C2NCCS2)cc1 (stereo not given)
  OX1R antag = 6 | STK33 kinase inh = 1.9
> CNC(=O)NC(=O)CSc1nc2ccccc2n1CCOC
  OX1R antag = 4 | STK33 kinase inh = 1.1

Part of the list above in another layout.
compound	OX1R antag	STK33 kinase inh
Cc1cc(C)c2c(-n3cccc3)nn(C)c2n1	5	-2.7
CCC(=O)N1CCN(c2ccccc2NC(=O)c2ccc([N+](=O)[O-])o2)CC1	28	2.9

(more compounds)
> CCOc1ccc(CN2CCC(n3nccc3NC(=O)c3ccccc3OC)CC2)cc1
  OX1R antag = 7 | STK33 kinase inh = -0.6
> N/C(Cc1ccc(Cl)cc1Cl)=N\OC(=O)Cc1ccc(Cl)cc1
  OX1R antag = 38 | STK33 kinase inh = -0.9
> CN(Cc1ccc(F)cc1)C(=O)CCc1nnc(-c2ccccc2)o1
  OX1R antag = 15 | STK33 kinase inh = -0.4
> CC(C)N(Cc1ccccc1)C(=O)/C=C/c1ccccc1[N+](=O)[O-]
  OX1R antag = 27 | STK33 kinase inh = -0.6
> COc1ccc(-c2nc(NC(=O)CSc3nnc(C)s3)ns2)cc1
  OX1R antag = 17 | STK33 kinase inh = 0.3
> CSc1ncccc1C(=O)N(C)CC(=O)Nc1cccc(F)c1
  OX1R antag = 10 | STK33 kinase inh = -3.0
> COc1ccc(OC)c(C2C=C(C34CC5CC(CC(C5)C3)C4)NC(=S)N2)c1 (stereo not given)
  OX1R antag = 7 | STK33 kinase inh = -0.2
> Cc1ccccc1CNC(=O)c1ccc(CSCc2ccccc2)cc1
  OX1R antag = 36 | STK33 kinase inh = 1.1
> Cc1cc(C)n(CCN(C)C(=O)C2CCC(=O)N(CCN3CCOCC3)C2)n1 (stereo not given)
  OX1R antag = -8 | STK33 kinase inh = -0.9
> Cc1ccc(-c2nn(-c3ccccc3)cc2/C=N/n2c(-c3cccs3)n[nH]c2=S)cc1
  OX1R antag = -2 | STK33 kinase inh = -0.7

> CN(C)CCOC1c2ccccc2CCc2ccc3ccccc3c21 (stereo not given)
  OX1R antag = 2 | STK33 kinase inh = -0.6
> CC(Nc1nc(N2CCOCC2)nc2ccccc12)c1ccccc1 (stereo not given)
  OX1R antag = 12 | STK33 kinase inh = 0.2
> Cc1ccccc1Cc1c(C)nc2nc(SCC(=O)NCCCN3CCCC3)nn2c1C
  OX1R antag = 13 | STK33 kinase inh = -1.0
> COc1ccc(/C=N/NC(=O)CCc2c(C)n[nH]c2C)cc1OC
  OX1R antag = 3 | STK33 kinase inh = -0.8
> COc1ccc(C(NCC(=O)NC(C)c2ccc(Cl)cc2)c2ccccc2)cc1 (stereo not given)
  OX1R antag = 1 | STK33 kinase inh = -0.1
> CC1CN(c2ccc([N+](=O)[O-])cc2C(=O)N2CCOCC2)CC(C)N1 (stereo not given)
  OX1R antag = 24 | STK33 kinase inh = -1.2
> NS(=O)(=O)c1cc(C(=O)OCC(=O)NNC(=O)c2ccccc2)ccc1Cl
  OX1R antag = 18 | STK33 kinase inh = -0.4
> COc1ccc(OC)c(NC(=O)CSc2nnc(C)n2Cc2ccccc2)c1
  OX1R antag = 4 | STK33 kinase inh = -0.2
> Cc1ccc(NC(=O)CNCc2ccccc2)c(Br)c1
  OX1R antag = 13 | STK33 kinase inh = -0.1
> CCN(CC)C(=O)C(=O)c1cccn1-c1ccc(C#N)cc1
  OX1R antag = 12 | STK33 kinase inh = -2.6

Laid out differently: three of the compounds above.
smiles	OX1R antag	STK33 kinase inh
Cc1ccccc1Cc1c(C)nc2nc(SCC(=O)NCCCN3CCCC3)nn2c1C	13	-1.0
Cc1ccc(NC(=O)CNCc2ccccc2)c(Br)c1	13	-0.1
CN(C)CCOC1c2ccccc2CCc2ccc3ccccc3c21 (stereo not given)	2	-0.6

Next section:
> Cc1ccc(C(=O)CN2C(=O)C(C)Oc3ccccc32)cc1 (stereo not given)
  OX1R antag = 15 | STK33 kinase inh = -1.2
> COc1ccc(OC)c(NC(=O)CSc2nnc(CNC(=O)c3ccccc3F)o2)c1
  OX1R antag = 8 | STK33 kinase inh = -1.8
> COc1cccc(COC(=O)c2sc3nc4n(c(=O)c3c2C)CCC4)c1OC
  OX1R antag = 32 | STK33 kinase inh = -0.6
> C/C(=N\N1CCN(C2c3ccccc3-c3ccccc32)CC1)c1cccnc1
  OX1R antag = 3 | STK33 kinase inh = -1.1
> CN(C)c1oc(-c2ccco2)nc1C#N
  OX1R antag = 8 | STK33 kinase inh = 1.6
> COc1ccc(Cl)cc1NC(=O)c1nnn(CC(=O)Nc2ccc(C)c(C)c2)c1N
  OX1R antag = 0 | STK33 kinase inh = 0.6
> O=C(Cc1ccccc1F)Nc1nc(-c2ccc(F)cc2)cs1
  OX1R antag = 57 | STK33 kinase inh = -1.0
> COc1cc(O)c(C(CCN2CCCCC2)c2ccc3c(c2)OCO3)c(OC)c1 (stereo not given)
  OX1R antag = 34 | STK33 kinase inh = -0.3
> CCn1c(SCC(=O)N(C)CC(=O)Nc2cccc(OC)c2)nnc1-c1ccco1
  OX1R antag = 40* | STK33 kinase inh = 0.9
> N#Cc1cnn2c(C(F)(F)F)c3c(nc12)CCCC3
  OX1R antag = 7 | STK33 kinase inh = -1.1

Exported with values ahead of the structure: part of the list above.
OX1R antag	STK33 kinase inh	molecule
8	1.6	CN(C)c1oc(-c2ccco2)nc1C#N
7	-1.1	N#Cc1cnn2c(C(F)(F)F)c3c(nc12)CCCC3

New compounds follow:
> Nc1c(C(=O)NCC2CCCO2)sc(=S)n1-c1ccccc1 (stereo not given)
  OX1R antag = 28 | STK33 kinase inh = -0.4
> O=C(NCCOCCNC(=O)OCc1ccccc1)OCc1ccccc1
  OX1R antag = 10 | STK33 kinase inh = -0.5
> COC(=O)N/N=C\c1cc2c(cc1Br)OCO2
  OX1R antag = 24 | STK33 kinase inh = -0.5
> Cn1nc(NC(=O)CC23CC4CC(CC(C4)C2)C3)c2c(F)cccc21
  OX1R antag = 12 | STK33 kinase inh = -1.0
> O=C(CCS(=O)(=O)c1ccccc1)N1CCN(c2ccccc2)CC1
  OX1R antag = 4 | STK33 kinase inh = -1.5
> Cc1nnc(SCc2nnc(-c3ccc(Cl)cc3)o2)n1-c1ccccc1
  OX1R antag = 15 | STK33 kinase inh = -1.1
> Clc1ccc(-c2nnc(NCc3ccccc3)c3ccccc23)cc1
  OX1R antag = 16 | STK33 kinase inh = -0.4
> NC(=S)N/N=C/c1ccccc1OCc1cccc(Cl)c1
  OX1R antag = 81* | STK33 kinase inh = -0.3
> O=C(c1cccc(F)c1)N1CCN(c2ccc([N+](=O)[O-])c3cccnc23)CC1
  OX1R antag = 58 | STK33 kinase inh = -0.2
> O=S(=O)(c1ccccc1)c1nnn2c1nc(NC1CCN(Cc3ccccc3)CC1)c1ccccc12
  OX1R antag = 13 | STK33 kinase inh = -0.4

> Cn1c(=O)c2c(nc(N3CCN(c4ccccn4)CC3)n2Cc2ccc(Cl)cc2Cl)n(C)c1=O
  OX1R antag = 4 | STK33 kinase inh = -1.2
> O=C(NCCc1ccccc1)c1ccc(=O)[nH]c1
  OX1R antag = 7 | STK33 kinase inh = -2.0
> Cc1ccc(/C=C/C2=NN(Cc3ccc(Cl)c(Cl)c3)C(=O)CC2)cc1
  OX1R antag = 4 | STK33 kinase inh = -1.7
> CCc1nnc(NC(=O)c2ccc(C)o2)s1
  OX1R antag = 5 | STK33 kinase inh = 0.7
> CN(CCOc1ccccc1)c1ccc(S(=O)(=O)N2CCCCC2)cn1
  OX1R antag = 2 | STK33 kinase inh = 7.3
> O=C(COC(=O)Cc1ccc(-c2ccccc2)cc1)NCc1ccc(F)cc1
  OX1R antag = 6 | STK33 kinase inh = -1.6
> c1ccc(-c2nnc3sc(-c4csc5c4CCCC5)nn23)cc1
  OX1R antag = 12 | STK33 kinase inh = -0.5
> COCCn1c(SCC(=O)N2CCCC2)nnc1C(C)C
  OX1R antag = 17 | STK33 kinase inh = -0.8
> O=C(O)c1ccc(NC(=S)NC(=O)c2cccnc2)cc1
  OX1R antag = 0 | STK33 kinase inh = -0.2
> CCOCCCN(C(=O)Cn1nnc(-c2ccc(C)o2)n1)C(C(=O)NC1CCCC1)c1ccco1 (stereo not given)
  OX1R antag = 14 | STK33 kinase inh = -0.6
> O=C(CSc1nc2ccccc2c(=O)n1CCCN1CCOCC1)N1CCN(c2ccccc2)CC1
  OX1R antag = 10 | STK33 kinase inh = -1.7

Screening data from PubChem.
